# ALR inh = inhibitors of human ALR sulfhydryl oxidase, primary screen, biochemical, H2O2 detection, HRP-luminol luminescence, single point | FAD-linked sulfhydryl oxidase ALR (Homo sapiens), P55789 | purified ALR, DTT oxidation | inhibition, % (test concentration not listed) | 290,000 compounds, 3.8% hits;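 active means mean and each replicate at 75% or more; inconclusive means only one of the two met; inactive means neither met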;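 further: stock transfer was 7.5 nL into about 7.5 µL; 0% = neutral wells and 100% = wells with inactivated enzyme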
# Target sequence (P55789 whole entry, looked up): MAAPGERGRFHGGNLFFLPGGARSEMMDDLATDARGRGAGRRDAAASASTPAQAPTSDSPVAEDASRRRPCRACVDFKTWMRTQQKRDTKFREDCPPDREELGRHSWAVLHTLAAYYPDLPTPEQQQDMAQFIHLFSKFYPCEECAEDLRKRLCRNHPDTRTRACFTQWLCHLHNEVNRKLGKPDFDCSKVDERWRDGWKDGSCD
# MLL AF4-AF9 inh = inhibitors of AF4 peptide binding to AF9, primary screen, biochemical, AlphaScreen, biotin-AF4 peptide, FLAG-AF9, single point; 350,000 compounds, 0.47% hits; Protein AF-9 (Homo sapiens), P42568; inhibition, % at 10 µM; AID 651704, 2012;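 active means every replicate reaching a set inhibition limit, whatever the replicate mean, cut at about 25% in these data; inconclusive means mean inhibition reaches that limit but some replicates miss it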;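 further: 0% = plate neutral control median and 100% = total signal loss; the record names both 10 and 1 µM as test concentration; the first replicate is given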
# Target sequence (P42568 whole entry, looked up): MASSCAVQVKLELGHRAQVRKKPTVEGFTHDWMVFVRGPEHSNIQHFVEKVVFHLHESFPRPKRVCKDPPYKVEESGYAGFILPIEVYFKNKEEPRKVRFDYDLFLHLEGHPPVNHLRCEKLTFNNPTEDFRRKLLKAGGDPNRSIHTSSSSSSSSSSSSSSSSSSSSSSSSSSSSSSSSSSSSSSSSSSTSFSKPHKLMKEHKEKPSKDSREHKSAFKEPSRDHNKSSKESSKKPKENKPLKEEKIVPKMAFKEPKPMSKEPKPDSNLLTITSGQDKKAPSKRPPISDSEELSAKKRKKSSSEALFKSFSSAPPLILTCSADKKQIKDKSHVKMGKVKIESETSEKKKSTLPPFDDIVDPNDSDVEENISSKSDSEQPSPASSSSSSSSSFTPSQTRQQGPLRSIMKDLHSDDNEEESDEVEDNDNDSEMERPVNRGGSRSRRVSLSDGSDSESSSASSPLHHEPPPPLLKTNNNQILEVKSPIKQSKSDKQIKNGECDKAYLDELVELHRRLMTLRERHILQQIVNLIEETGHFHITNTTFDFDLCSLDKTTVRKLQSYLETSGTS
# rRNA inh HTS = reduced GFP signal of wild-type E. coli, primary screen, bacterial rRNA inhibitor project, GFP/RFP fluorescence, OD600, single point; 350,000 compounds, 1.6% hits; GFP signal change (wild-type ribosome), % (test concentration not listed); AID 720706, 2013; E. coli WT GFP vs humanized-ribosome RFP mutants, 24 h; stronger effect = lower value; DMSO median 0, no signal -100;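 active means significant combined selectivity score with lowered wild-type GFP, culture density cut under 30%, mutant RFP and density less affected; inactive means any of these conditions unmet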; further: one replicate is shown; some compounds called inactive have numbers as strong as hits
# HNF4A DNA FP = change in binding of human HNF4A to DNA, primary screen, biochemical, fluorescence polarization, FITC-DNA; 1 h; activity change, % at 10 µM; AID 1224865, 2016; Hepatocyte nuclear factor 4-alpha (Homo sapiens), P41235; 360,000 compounds, 0.3% hits; in the data active means activity change above about 30%, passing the limit was not always enough;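 further: controls were the assay level and a saturating level of protein; the project sought stronger binding though the title names inhibitors; some compounds called inactive have numbers as strong as hits; positive values seem to mean higher polarization but the record does not say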
# Ecoli growth = E. coli growth inhibition, primary screen, OD600; Escherichia coli growth, 23 h; stronger effect = lower value; AID 1053175, 2014; OD600 absorbance (no concentration beside the values); 330,000 compounds, 0.21% hits;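 active means OD600 absorbance below the run mean of sample wells minus 3.6 SD, in any replicate, cut at about 0.56 in these data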;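 further: stock transfer was 300 nL into about 60 µL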
# Vif TR-FRET = inhibitors of Vif binding to APOBEC3G peptide, primary screen, biochemical, TR-FRET, GST-Vif 1-94, biotin-A3G peptide, dose response retest (AID 1117319) | Virion infectivity factor (Human immunodeficiency virus type 1 group M subtype B (isolate … | TR-FRET GST-Vif / biotin-A3G peptide binding; higher % means a stronger effect; test concentration not given here; strong numbers were not always called active | one-dose inhibition, %; IC50 in µM for titrated hits | 260,000 compounds, 0.57% hits;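 active means above the screen mean plus three standard deviations and confirmed in dose response; inconclusive means results disagree or hit not tested in dose response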;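 further: Vif residues 1-94 fused to GST binding biotinylated APOBEC3G peptide 110-148; 0% = full assay without inhibitor and 100% = GST in place of GST-Vif; retest series ran down from 100 µM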
# FGF22 binding = binders of human FGF22 protein, primary screen, FGF22 synaptogenesis inhibitor project, biophysical, thermal shift, single point; calls only at 9.99 µM; 340,000 compounds, 1.5% hits; recombinant FGF22 thermal shift, SYPRO orange fluorescence; percent of sucrose octasulfate shift, DMSO zero; Fibroblast growth factor 22 (Homo sapiens), Q9HCT0; AID 651658, 2012;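 active means melting point raised past a set limit in the mean and every replicate; inconclusive means no clear call; three in four hits are not shown here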
# Target sequence (Q9HCT0 whole entry, looked up): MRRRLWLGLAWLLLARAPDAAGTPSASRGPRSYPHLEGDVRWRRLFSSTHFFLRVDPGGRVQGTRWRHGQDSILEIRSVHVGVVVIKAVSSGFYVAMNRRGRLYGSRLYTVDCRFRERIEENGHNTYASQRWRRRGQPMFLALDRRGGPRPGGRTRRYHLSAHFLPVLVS
# rRNA inh HTS OD600 = second read-out of rRNA inh HTS, no call of its own (marks repeat the call); OD600 change, %; measured here: OD600 growth;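 optical density of the mix in the first replicate; 0 = DMSO median and -100 = no signal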
# rRNA inh HTS RFP = further read-out of rRNA inh HTS, marked with its call; RFP signal change, %; measured here: RFP humanized mutant strains;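 first replicate; 0 = DMSO median and -100 = no signal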
# Active calls of the source: *; i = inactive; ? = inconclusive; / = not tested or not shown; & = joins results of further samples. A portion of the library; count on the stated rates, not on these rows.
SMILES,ALR inh,MLL AF4-AF9 inh,rRNA inh HTS,rRNA inh HTS OD600,rRNA inh HTS RFP,HNF4A DNA FP,Ecoli growth,Vif TR-FRET,FGF22 binding
CCOc1ccc(NC(=O)CCC(=O)c2ccc(Br)cc2)cc1,3.0,-1.1,-0.4,8.4,3.9,-13.0,0.68,-5.6%,i
C[C@@H]1CN([C@H](C)CO)C(=O)c2cccc(NC(=O)Nc3ccc(C(F)(F)F)cc3)c2O[C@H]1CN(C)Cc1ccc(-c2ccccc2)cc1,/,7.8,5.0,17.4,-0.7,/,/,/,i
Cc1cc(NS(=O)(=O)c2ccc(NC(=O)N[C@H](C(=O)O)C(C)C)cc2)no1,-0.4,0.8,7.8,16.6,-2.9,-1.8,0.631,-7.4%,i
O=C1N=C(N2CCOCC2)CS1,-1.0,/,/,/,/,0.9,0.703,-3.1%,/
CNc1nc(Cl)c(SC)c(NCc2ccc(F)cc2)n1,2.0,1.5,-13.2,-23.8,-1.2,0.4,0.671,-7.1%,i
CCCCCC(=O)Nc1cccc(C2=NOC3(C2)C[C@@H](C(N)=O)N(C(=O)Cc2ccc([N+](=O)[O-])cc2)C3)c1 (some centres undefined),/,2.4,1.4,2.8,-3.1,3.4,/,?,i
Cc1ccc(S(=O)(=O)/N=C(/c2ccccc2)N2CCOCC2)cc1,-4.3,-1.0,8.8,9.2,-2.2,4.1,/,/,i
CC(=O)c1cccc(N(CC(=O)Nc2ccccc2C(=O)N2CCCC2)S(C)(=O)=O)c1,1.9,1.8,1.5,1.4,0.9,0.1,0.712,/,i
CC1(C(=O)NS(=O)(=O)c2ccccc2Cl)CCN1C(=O)C1(c2ccc(Cl)cc2)CC1 (centres undefined),/,-1.0,1.4,10.6,-1.8,0.1,/,/,i
Cc1cccc2cc(CN(CCCO)C(=O)Nc3cccc(Cl)c3)c(=O)[nH]c12,-0.5,/,/,/,/,1.2,0.677,11.1%,/
Cc1c(CCO)c(=O)[nH]n1C(=O)c1ccc(F)cc1,8.1,/,/,/,/,4.0,0.692,30.6%,/
O=C(CC1C[C@H](C(=O)N2CCOCC2)[C@@]2(CCC3CCCC3)c3[nH]c4ccccc4c3CCN2C1=O)NCCc1ccccn1 (some centres undefined),-1.5,4.0,8.0,10.5,1.7,-2.4,0.708,-1.1%,i
CN1C(=O)c2cc(NC(=O)Cc3ccccc3)ccc2OC[C@@H]2O[C@H](CC(=O)O)CC[C@@H]21,/,-0.3,0.4,6.7,-0.7,/,/,/,i
CC(=C/c1ccc(C(C)C)cc1)/C=N/NC(=O)Cn1nc(C)cc1C,-17.8,-0.2,9.1,0.2,2.8,6.2,/,/,i
C[C@@H]1CCCCO[C@@H](CN(C)S(=O)(=O)c2ccc(Cl)cc2)[C@H](C)CN([C@@H](C)CO)C(=O)c2cc(NC(=O)Nc3ccc(F)cc3)ccc2O1,/,-4.1,0.8,3.3,-0.9,/,/,/,i
CCCn1c(SC(C)C(=O)NC2CCCC2)n[nH]c1=O (centres undefined),/,-0.1,1.9,10.2,-1.5,2.2,0.71,3.6%,i
Cc1ccsc1C(=O)N1CCN(c2ncc(C(F)(F)F)cc2Cl)CC1,1.9,1.0,-13.0,-12.9,-1.6,-1.8,0.665,/,i
Cc1ccc(NC(=O)Nc2nc(-c3ccc(C)s3)cs2)cc1,8.4,/,/,/,/,2.2,0.798,-5.1%,/
O=C(c1ccncc1)N1C[C@@H]2[C@H](c3ccccc31)[C@H](CO)N2Cc1ccccc1F,/,-1.6,-2.6,-1.3,0.2,/,/,/,i
c1ccc(COc2ccc(OCCCN3CCCC3)cc2)cc1,-2.3,8.8,-5.7,-5.4,-4.4,-0.4,0.671,-1.8%,i
O=C(C1=C(O)C(=O)N(CCN2CCOCC2)C1c1ccccn1)c1cccs1 (centres undefined),-22.4,/,/,/,/,2.4,0.702,14.5%,/
COc1ccc(S(=O)(=O)Nc2ccc3c(c2)CC(=O)N([C@H](C)CO)C[C@@H](C)[C@H](CN(C)C(=O)NC2CCCCC2)O3)cc1,/,-1.4,8.1,8.7,0.8,/,/,/,i
CC(C)(Oc1ccc(Cl)cc1)C(=O)NC1CCCCC1,0.9,-0.5,3.3,2.3,0.7,1.9,0.686,0.5%,i
CCCC#Cc1cnc2c(c1)C(=O)N([C@@H](C)CO)C[C@H](C)[C@@H](CN(C)C(=O)Nc1ccccc1F)O2,/,-2.2,-4.2,-5.4,3.4,/,/,/,i
CCNC(=S)Nc1ccc(NC(=O)c2ccccc2O)cc1,1.9,-1.3,-12.8,5.8,0.4,-3.4,0.655,/,i

# An excerpt of these results, with tabs:
SMILES	ALR inh	MLL AF4-AF9 inh	rRNA inh HTS	rRNA inh HTS OD600	rRNA inh HTS RFP	HNF4A DNA FP	Ecoli growth	Vif TR-FRET	FGF22 binding
CCOc1ccc(NC(=O)CCC(=O)c2ccc(Br)cc2)cc1	3.0	-1.1	-0.4	8.4	3.9	-13.0	0.68	-5.6%	i
C[C@@H]1CN([C@H](C)CO)C(=O)c2cccc(NC(=O)Nc3ccc(C(F)(F)F)cc3)c2O[C@H]1CN(C)Cc1ccc(-c2ccccc2)cc1	/	7.8	5.0	17.4	-0.7	/	/	/	i
Cc1cc(NS(=O)(=O)c2ccc(NC(=O)N[C@H](C(=O)O)C(C)C)cc2)no1	-0.4	0.8	7.8	16.6	-2.9	-1.8	0.631	-7.4%	i
O=C1N=C(N2CCOCC2)CS1	-1.0	/	/	/	/	0.9	0.703	-3.1%	/
CNc1nc(Cl)c(SC)c(NCc2ccc(F)cc2)n1	2.0	1.5	-13.2	-23.8	-1.2	0.4	0.671	-7.1%	i
CCCCCC(=O)Nc1cccc(C2=NOC3(C2)C[C@@H](C(N)=O)N(C(=O)Cc2ccc([N+](=O)[O-])cc2)C3)c1 (some centres undefined)	/	2.4	1.4	2.8	-3.1	3.4	/	?	i
Cc1ccc(S(=O)(=O)/N=C(/c2ccccc2)N2CCOCC2)cc1	-4.3	-1.0	8.8	9.2	-2.2	4.1	/	/	i
CC(=O)c1cccc(N(CC(=O)Nc2ccccc2C(=O)N2CCCC2)S(C)(=O)=O)c1	1.9	1.8	1.5	1.4	0.9	0.1	0.712	/	i
CC1(C(=O)NS(=O)(=O)c2ccccc2Cl)CCN1C(=O)C1(c2ccc(Cl)cc2)CC1 (centres undefined)	/	-1.0	1.4	10.6	-1.8	0.1	/	/	i
Cc1cccc2cc(CN(CCCO)C(=O)Nc3cccc(Cl)c3)c(=O)[nH]c12	-0.5	/	/	/	/	1.2	0.677	11.1%	/

# Further compounds follow:
SMILES,ALR inh,MLL AF4-AF9 inh,rRNA inh HTS,rRNA inh HTS OD600,rRNA inh HTS RFP,HNF4A DNA FP,Ecoli growth,Vif TR-FRET,FGF22 binding
COc1ccc(NC(=O)CSc2nc3ccsc3c(=O)n2CCC(=O)O)cc1,/,-1.2,-4.1,0.8,-3.5,4.5,/,1.3%,i
Cc1ccccc1Nc1nc(N)nc(CSc2nnnn2C)n1,11.7,-1.9,10.5,5.6,-1.0,-2.9,0.685,-1.1%,i
O=C(C1=C[C@H](c2coc3ccccc3c2=O)C[C@H](OCc2ccc(CO)cc2)O1)N1CCOCC1,-6.6,0.0&-1.1,4.0,2.2,-3.0,3.1,/,2.4%,i
COc1ccc(-c2nn(CC(=O)NCCc3ccccc3)c(=S)n2C)cc1,-1.5,/,/,/,/,-0.3,0.635,4.9%,/
Cc1cc2nnc(SC(C)C)n2c2ccccc12,-3.0,/,/,/,/,-0.6,0.739,-2.1%,/
CCC(C(=O)Nc1nnc(-c2ccco2)s1)c1ccccc1 (centres undefined),-5.7,/,/,/,/,0.1,0.717,?,/
Oc1ccc2ccc3cccc[n+]3c2c1,-26.4,/,/,/,/,-81.1,0.725,/,/
CCCCN1CC(N2CCN(C)CC2)CS1(=O)=O (centres undefined),/,-3.0,3.5,16.3,-9.0,1.4,/,/,i
COc1ccc2oc(C(=O)OCC(=O)Nc3ccc(C(=O)N(C)C)cc3)c(C)c2c1,-1.6,-2.8,2.3,4.4,-0.1,3.4,0.707,/,i
C=CCNC(=O)c1cccc(OC2CCN(CC(C)(C)C)CC2)c1,-5.1,2.5,19.2,9.4,5.0,-1.3,0.669,/,i
COc1ccc(NC(=O)N(C)C[C@H]2Oc3c(NC(=O)c4nc5ccccc5s4)cccc3C(=O)N([C@@H](C)CO)C[C@@H]2C)cc1,/,-0.7,-1.1,-3.9,2.0,/,/,/,i
CC(NC(=O)c1ccccc1Cl)c1nnc(SCC(=O)Nc2ccc(C(=O)O)cc2)n1C (centres undefined),-2.6,/,/,/,/,1.8,0.69,4.0%,/
CCS(=O)(=O)c1cc([N+](=O)[O-])c(Sc2ccccc2NC(C)=O)s1,4.4,-1.9,18.1,17.4,5.1,1.3,/,-13.2%,i
O=C(Cn1cnc2scc(-c3ccc(Br)cc3)c2c1=O)N1CCOCC1,-0.5,1.1,6.6,2.6,3.2,-0.1,0.656,-1.2%,i
COc1ccc(CSC(=S)NNc2ccccc2)cc1,/,-1.6,-15.0,-13.8,-6.0,-1.8,/,1.2%,i
CC1Cc2ccccc2N1CC(=O)NC(=O)NC1CCCCC1 (centres undefined),-10.4,3.7,-3.4,5.6,19.1,-1.1,0.664,/,i
COc1ccc(CCNC(=O)c2c(C)nn(-c3ccccc3)c2Cl)cc1,1.0,-0.8,-3.1,10.9,-0.3,-2.3,0.712,/,i
Cc1ccc(C2NC(=O)c3ccccc3N2)c(C)c1 (centres undefined),/,0.5,12.9,19.8,2.7,-6.7,/,-3.4%,i
Cc1ccc(Cl)cc1NC(=O)C1CC1c1ccccc1 (centres undefined),32.4,5.9,0.0,0.4,-2.0,1.3,0.697,4.0%,i
O=C1CCCc2c1cnc1ncnn21,4.9,-1.8,12.0,13.6,-0.6,-0.1,0.697,7.2%,i
Cc1cc(C)cc(Cn2cc(CN3CC(N4CCN(CCO)CC4)CS3(=O)=O)nn2)c1 (centres undefined),/,-0.7,8.5,7.0,0.0,-5.4,/,/,i
Cc1ccc2c(c1)C1CN(C)CCC1N2S(=O)(=O)c1cc(C(F)(F)F)ccc1Cl (centres undefined),1.6,-3.0,-13.8,-36.0,0.1,5.0,0.673,/,i
C[C@@H]1CCCCO[C@H](CN(C)CC2CCCCC2)[C@@H](C)CN([C@@H](C)CO)C(=O)c2cc(NS(=O)(=O)c3cccs3)ccc2O1,/,-7.9,1.1,-8.7,6.1,/,/,/,i
COc1cccc(C2C(C(=O)NCc3ccccc3)=C(C)Nc3ncnn32)c1 (centres undefined),-1.2,/,/,/,/,1.6,0.724,-4.2%,/
O=C(NNC(=O)c1ccc(Br)s1)c1cccc(S(=O)(=O)N2CCCC2)c1,18.5,-7.2,-4.9,-10.9,-0.8,-4.7,0.665,-3.3%,i
O=C(c1ccccn1)N1C[C@H]2[C@@H](c3ccccc31)[C@@H](CO)N2C(=O)C1CCCC1,/,0.1,4.4,11.2,-1.8,/,/,/,i
CCN(C(=O)CSc1nnc(-c2ccccc2C)n1C)c1c(N)n(Cc2ccccc2)c(=O)[nH]c1=O,/,-3.7,8.9,17.4,0.2,-2.3,0.649,-1.6%,i
